Sa helicase inh = blocks Staphylococcus aureus DNA helicase; 120,000 compounds, 0.05% hits; purified S. aureus helicase, fluorescence unwinding assay; about half of the hits fall short of the stated cut; inhibition, %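 (tested at about 80 µM)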; AID 485395;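 active = both duplicates at 50% or more, or one of them with a favoured structure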;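 note: 0% = mean of negative control wells and 100% = mean of positive control wells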
MgrA-DNA mod = S. aureus MgrA-DNA binding modulation. 84,000 compounds, 0.13% hits. inhibition, %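 (about 10 µg/mL by stock and volumes)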. fluorescence polarization. AID 602314;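 active = above 50% in either of two replicates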;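 note: 0% = protein plus DNA without compound and 100% = DNA alone without protein; higher means less MgrA bound to DNA so lower polarization; one replicate is shown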
Active calls of the source: *; x = no result given; & = joins results of further samples. A portion of the library; count on the stated rates, not on these rows.

MgrA-DNA mod | Sa helicase inh | structure
x | -18 | COc1ccc(OC)c(CN2C(=O)CCC2(C)C(=O)NCCc2ccc(OC)c(OC)c2)c1 (configuration not stated)
10 | x | O=C1/C(=C/c2cn(-c3ccccc3)nc2-c2cccs2)SC(=S)N1C1CCS(=O)(=O)C1 (configuration not stated)
-1.0 | 11 | O=C(c1ccc(CN2CCc3ccccc3C2)cc1)N1CCCCCC1
x | -34 | O=CNc1c(O)c2ccccc2oc1=O
x | -13 | O=c1[nH]c(-c2ccccc2)nc(=S)[nH]1
0.7 | x | Cc1cc(C)c(C(=O)c2ccc(C(=O)N(C)C)cc2)c(C)c1
x | 10 | Cc1ccc(SCC(=O)N2CCCCC2)cc1
0.4 | x | COc1ccc(OC)c(S(=O)(=O)N2CCCC2)c1
2.5 | 8 | Cc1ccc(Cl)cc1N1CCN(CCCNC(=O)Cn2ncc3ccsc3c2=O)CC1
0.2 | x | FC(F)(F)c1cnc(-n2ccc3ccccc32)c(Cl)c1
x | 38 | CC1=C/C(=N\N=C2\NC(=O)C(CC(=O)Nc3ccccc3)S2)CC(C)(C)C1 (configuration not stated)
3.9 | -2 | c1ccc(NNc2nncc(-c3ccccc3)n2)cc1
0.9 | -3 | Cc1ccccc1C(=O)N1N=C(c2ccc(Br)cc2)CC1c1nc2ccccc2[nH]1 (configuration not stated)
0.0 | 19 | Cc1cccc(N2C(=O)CC(SCc3nc4ccccc4[nH]3)C2=O)c1 (configuration not stated)
0.1 | x | Cc1cc(SCC(=O)NN)c(C)cc1Cl
x | -6 | CN(C(=O)C1CCCC1)c1c(N)n(Cc2ccccc2)c(=O)[nH]c1=O
-1.6 | 12 | O=C(CSc1ccccn1)N1CCN(S(=O)(=O)c2ccccc2)C1
-0.8 | 7 | Cn1c(C(=O)O)c(CC(=O)Nc2cnc3ccccc3c2)c2ccccc21
x | -12 | N#Cc1ccc(COC(=O)CCc2nc(N)nc(Nc3ccccc3)n2)cc1
-0.8 | 10 | O=C(O)CCCc1c(-[n+]2ccccc2)[nH]c2ccccc12
x | 4 | CCOC(=O)c1[nH]c(C)c(C(=O)N2CCCC(C)C2)c1C (configuration not stated)
x | -13 | COc1ccc(OCC(NS(=O)(=O)c2ccc(-n3cnnn3)cc2)C(C)C)cc1 (configuration not stated)
x | 16 | CN(C)S(=O)(=O)c1cccc(CSc2nnc(-c3c[nH]c4ccccc34)o2)c1
x | 15 | CCOC(=O)CN1C(=O)/C(=c2\sc3nc4ccccc4n3c2=O)c2ccccc21
x | -8 | NC(=O)c1c(NC(=O)Cn2cnc3c(cnn3-c3ccccc3)c2=O)sc2c1CCC2
x | -8 | CCN(C(=O)CSc1ccc2ccccc2n1)C1CCS(=O)(=O)C1 (configuration not stated)
x | -10 | Cc1cccc(NC(=O)COC(=O)c2ccco2)c1
x | -2 | CCN(CC)S(=O)(=O)c1ccc(O)c(C(=O)OCC(=O)N2c3ccccc3CC2C)c1 (configuration not stated)
1.0 | x | COc1ccc2c3c([nH]c2c1)[C@H]1C[C@H]2[C@H](C[C@@H](O)[C@H](OC)[C@H]2C(=O)O)CN1CC3
x | 17 | O=C(/C=C\c1ccccc1)Nc1c(-c2cccs2)nc2ccccn12
-2.3 | 10 | Cc1ccc(NC(=O)C2C(c3ccccc3)C=CC(c3ccccc3)C2C(=O)O)cc1C (configuration not stated)
x | 23 | CCCCn1c2ccc(Cl)cc2c2nc3ccccc3nc21
x | 7 | O=C(CCSCc1ccccc1F)N1CCc2ccccc21
x | -6 | CC(C)NC(=O)CSc1nnc(SCC(=O)NC(C)C)s1
x | -13 | O=C(NCCc1c[nH]c2ccccc12)NC1CC(=O)N(c2ccccc2)C1 (configuration not stated)
x | -14 | COc1cccc(CNC(=O)C2=NNC(=O)CC2)c1
x | -1 | O=P(O)(c1ccccc1)c1nc2c(s1)CCCC2
1.7 | x | Cc1nn(C)c(C)c1NC(=O)Nc1ccccc1
2.2 | x | CCNc1nc(NCC)nc(OCCOC(=O)Nc2ccccc2)n1
x | 8 | COc1ccc(CCNC(=O)Cn2c(=O)n(CCc3ccccc3)c(=O)c3c(C)c(C)sc32)cc1OC
x | -2 | COCCNC(=O)c1cc2c(=O)n3cccc(C)c3nc2n(Cc2cccnc2)c1=N
-0.4 | 7 | c1ccc(CCn2nnc3ccccc32)cc1
-1.6 | 8 | COC(=O)c1c(C(=O)OC)c(C)n(Cc2cccnc2)c1C
x | 5 | Cc1cccc(C2=NN3C(=O)c4ccccc4C3C2)c1 (configuration not stated)
2.6 | x | O=C(Nc1ccccc1)c1cccc(=O)o1
0.3 | x | CC(=O)c1ccc(N=C(C)c2sc3ccccc3c2O)cc1
x | -48 | CCOC(=O)C1CCN(/C=C(\C#N)S(=O)(=O)c2ccc(Cl)cc2)CC1
-0.7 | x | Cc1onc(-c2ccccc2)c1CNC(=O)NC1CCN(C(=O)OCc2ccccc2)CC1
x | 9 | CCN1C(C(=O)c2ccccc2)=C(NC(=O)c2ccccc2)c2ccccc2S1(=O)=O
x | 12 | O=C(CCCSc1nc2cc(Cl)ccc2c(=O)n1Cc1ccco1)N1CCOCC1
-2.5 | -2 | CCc1nnc(NC(=O)c2nnn(-c3cccc(C(F)(F)F)c3)c2C)s1
2.3 | x | Cc1ccc(-c2ccn(-c3ccc(C)c(Cl)c3)c(=S)n2)cc1
0.0 | -12 | O=C(Nc1ccc(S(=O)(=O)N2CCc3ccccc32)cc1)c1ccccc1
x | 20 | CCOC(=O)c1c(C)c(-c2ccccc2)n(CC(=O)NCc2ccco2)c1C
-4.0&-2.6 | 2 | c1ccc(C2CN3CCSC3=N2)cc1 (configuration not stated)
-0.9 | 7 | COc1cnn(-c2ccccc2)c(=O)c1N(C)C
x | -6 | O=C(CCc1ccccc1)NCCCN1CCOCC1
0.6 | -2 | CC(C)(CO)NCc1ccc(-c2ccc(Cl)cc2)o1
x | -9 | CCOC(=O)/C(Br)=N\Nc1ccc(C)cc1
x | -24 | COc1cc(CC(=O)Nc2nc3ccc(S(N)(=O)=O)cc3s2)cc(OC)c1OC

Continuation:
MgrA-DNA mod | Sa helicase inh | structure
3.9 | -5 | CC(=O)N1CCN(c2ccccc2F)CC1
x | 23 | CC(C)Cn1cc(NC(=O)N2CCC(c3ccccc3)C2)c2ccccc2c1=O (configuration not stated)
x | -2 | COc1c(F)c(F)c(C(=O)O)c(Nc2ccccc2)c1F
x | 4 | Cc1cc(C(=O)CSc2nnc(C(F)(F)F)n2N)c(C)n1CC1CCCO1 (configuration not stated)
x | -32 | COc1cc(C2N(C(C)=O)CCN2S(=O)(=O)c2ccc(C)cc2)ccc1O (configuration not stated)
x | 2 | N#CC1=Cc2ccccc2OC1
x | 7 | Cn1c(=O)[nH]c(=O)c2ccc(-c3ccccc3)nc21
3.3 | -13 | N#CC1=C(N)Oc2c(sc3ccccc23)C1c1ccccc1OC(=O)c1ccccc1Cl (configuration not stated)
x | 14 | N#CCc1ccc(C(F)(F)F)cc1
x | 6 | O=S(=O)(NCCN1CCOCC1)c1ccc(I)cc1
-35 | 6 | CC(C)(C)c1ccc(C(=O)NC2CCNCC2)cc1
-1.4 | -4 | O=C(CSc1ncn[nH]1)Nc1ccc(F)cc1
0.4 | x | OCCN1CCN(c2ncc(Cl)cc2C(F)(F)F)CC1
x | -7 | COC(=O)c1ccc(Cn2cc(C(F)(F)F)cc(Cl)c2=O)o1
1.9 | 3 | CCOC(=O)CC(N)c1ccc2c(c1)OCO2 (configuration not stated)
x | 8 | O=C1CC(NS(=O)(=O)c2ccccc2)CN1c1ccc2c(c1)OCCO2 (configuration not stated)
1.7 | x | COc1ccc(NC(=S)NCCSc2ccc(Cl)cc2)cc1
x | -34 | CCCn1c(SC/C(O)=C(\C#N)c2nc3ccccc3[nH]2)n[nH]c1=O
-2.5 | x | O=C(O)c1cscc1S(=O)(=O)c1ccc(Cl)cc1
x | -15 | Cn1cccc1C(=O)NC(=O)CSc1nnc(-c2cccnc2)o1
x | -15 | O=C(O)c1cccc(NC(=O)c2cc3ccccc3oc2=O)c1
-4.0 | -8 | CC1(C)CC(NC(=O)c2ccn[nH]2)CC(C)(C)N1
-1.1 | 1 | Cc1ccc(NC(=O)CCn2ccnc2C)cc1Cl
-0.8 | 20 | Nc1cc(S(=O)(=O)C(F)(F)F)ccc1Cl
x | 9 | Cc1cccc(-n2ncc(C(=O)N3CCCC3)c2C2CCNCC2)c1
x | -2 | CCc1nc2nc3ccccc3nc2n1-c1ccc(N2CCOCC2)cc1
x | 15 | CCC(C)Sc1nnc(NC(=O)c2ccccc2C(F)(F)F)s1 (configuration not stated)
x | -15 | COc1ccc2oc(-c3ccccc3)c(C(=O)N(C)C)c2c1
4.0 | 11 | O=C(/C=C\c1ccc2c(c1)OCO2)NC1(C(=O)Nc2ccc3c(c2)OCO3)CCCCC1
x | -3 | COc1ccccc1CNC(=O)[C@H](C)N1C(=O)C2CC=CCC2C1=O (some centres not stated)

Structural class, the entries above containing a cyano group.
MgrA-DNA mod | Sa helicase inh | structure
x | -12 | N#Cc1ccc(COC(=O)CCc2nc(N)nc(Nc3ccccc3)n2)cc1
x | -48 | CCOC(=O)C1CCN(/C=C(\C#N)S(=O)(=O)c2ccc(Cl)cc2)CC1
x | 2 | N#CC1=Cc2ccccc2OC1
3.3 | -13 | N#CC1=C(N)Oc2c(sc3ccccc23)C1c1ccccc1OC(=O)c1ccccc1Cl (configuration not stated)
x | 14 | N#CCc1ccc(C(F)(F)F)cc1
x | -34 | CCCn1c(SC/C(O)=C(\C#N)c2nc3ccccc3[nH]2)n[nH]c1=O

Pulled by compound from the entries so far:
MgrA-DNA mod | Sa helicase inh | structure
x | -15 | Cn1cccc1C(=O)NC(=O)CSc1nnc(-c2cccnc2)o1
x | 8 | O=C1CC(NS(=O)(=O)c2ccccc2)CN1c1ccc2c(c1)OCCO2 (configuration not stated)
x | -2 | COc1c(F)c(F)c(C(=O)O)c(Nc2ccccc2)c1F
3.3 | -13 | N#CC1=C(N)Oc2c(sc3ccccc23)C1c1ccccc1OC(=O)c1ccccc1Cl (configuration not stated)

Continuation:
MgrA-DNA mod | Sa helicase inh | structure
0.5 | x | FC(F)(F)c1cccc(N=Cc2ccc(Cl)cc2)c1
x | 5 | CC1(C(=O)NC2CCCC2)CCC(=O)N1CCc1ccc(Cl)cc1 (configuration not stated)
x | 7 | CN(C(=O)c1cc2cccnc2n(C)c1=O)c1ccccc1
x | -13 | Cc1ccc2occ(CC(=O)Nc3cccc(C(F)(F)F)c3)c2c1
-0.8 | 2 | CCCc1nnc(SCC(=O)N(CC)CC)n1C
-4.7 | 20 | O=c1sc2ccccc2n1Cc1nnc(SCc2ccccn2)n1-c1cccc(Cl)c1
-0.3 | x | CN(C)N1C(=O)c2cccc3cccc(c23)C1=O
-2.5 | x | CCOC(=O)Cn1nc(C)c2ccccc2c1=O
x | 41 | COC(=O)Cc1cc(=O)[nH]c(/N=C(\N)Nc2ccc(C(C)C)cc2)n1
x | -11 | CCOC(OCC)c1ccc(C=C(C#N)C#N)cc1
x | 8 | Cc1csc(=O)n1CCC(=O)O
18 | -90 | CCN1C(=O)c2cccc3c(NC(=S)NC(=O)c4ccccc4)ccc1c23
x | 20 | COc1ccc(-c2c(C)nn3c(N4CCC(C(=O)NCC(OC)OC)CC4)cc(C)nc23)cc1OC
-0.2 | 0 | CC1CCCCC1NC(=O)c1ccc2c(=O)n(Cc3ccc4c(c3)OCO4)c(=O)[nH]c2c1 (configuration not stated)
2.2 | 4 | O=C1C(C=NCCN2CCOCC2)=C(O)c2ccccc21
5.0 | 5 | O=C(NC1CC1)C(F)(F)C1(F)OC(F)(F)C(F)(F)C1(F)F (configuration not stated)
x | -7 | C/C=C/C=N/Nc1nc(C)cc(=O)[nH]1
-1.6 | 16 | CCCCSC1=NC(C)(C)CC(C)O1 (configuration not stated)
0.8 | 3 | Cc1[nH]c2ccc(-c3nnc(SCC(=O)c4ccccc4F)o3)cc2c1C
x | 5 | CC1CCCC(NC(=O)Cn2nnc(-c3ccc(Cl)cc3)n2)C1C (configuration not stated)
x | -3 | CCc1c(C)sc2nc(CC(=O)N3CCOCC3)[nH]c(=O)c12
-0.7 | x | C=CCn1c(SCc2ccccc2)nnc1-c1ccc2ncccc2c1
0.7 | 17 | COc1cccc(-c2nc(CS(=O)(=O)CC(=O)NCCc3ccccc3)c(C)o2)c1
x | 2 | N#CCCSc1nnc(-c2cccnc2)o1
x | -5 | O=C(Cn1cnc2onc(-c3ccc(Cl)cc3)c2c1=O)NCc1ccccc1Cl
0.2 | 5 | CCC(C)NC(=O)c1cn(CCOC)c(=O)c2c1c1ccccc1n2C (configuration not stated)
-2.4 | 5 | CCN1C(=O)CC(c2ccc(OC)cc2)Sc2ccccc21 (configuration not stated)
-2.5 | 5 | O=C(O)CCn1cnc2sc3c(c2c1=O)CCCC3
x | -8 | Cc1nc2ccc(NC(=O)CC(C)(C)C)cc2s1
x | 5 | FC(F)(F)c1c(-c2nc(-c3ccc(Cl)cc3)no2)cnn1-c1ccccc1
x | -6 | COc1ccccc1N(C)S(=O)(=O)c1ccc(C)c(C(=O)O)c1
x | -6 | Cc1ccc(NC(=O)COC(=O)CN2CCCCCC2=O)cc1C
5.2 | 7 | COC(=O)C1=C(C)NC2=C(C(=O)CC(c3ccccc3)C2)C1c1ccc(N(C)C)cc1 (configuration not stated)
1.0 | x | S=c1[nH]nc(Nc2ccc(I)cc2)s1
-2.2 | x | NC(N)=NC(N)=Nc1ccc(F)cc1F
1.5 | -8 | CCCCN(CC)C(=O)c1cc2cc3cc(OC)ccc3nc2s1
1.9 | 20 | COc1ccccc1CN1CCCC1
0.8 | x | O=C1OC(c2ccccc2)=N/C1=C\c1ccc(/C=C2\N=C(c3ccccc3)OC2=O)cc1
-2.3 | x | CC(C)(O)C(=O)OCC(=O)c1ccc(Cl)cc1
x | -5 | COc1ccc2c(c1)CCCC21SC(NC(C)=O)=NN1C(C)=O (configuration not stated)
